MT1-MMP act inh – blocks activation of human MT1-MMP | P50281 | HT1080 RFP-PRO-GFP cells, GFP/RFP ratio fluorescence, overnight; percent of plate control window, DMSO zero | GFP/RFP ratio change, % at 20 µM | hit rate 0.061% among 360,000 | AID 651647;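 active = GFP/RFP ratio change of at least 30% with cell ATP level not reduced by more than half and red fluorescence within 50% of control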; note: strong numbers were not always called active
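Assay system – RFP-PRO-GFP reporter HT1080 cells · Compound dosing – single dose of 20 µM compound, 1% DMSO final · Incubation – overnight compound exposure at 37 °C · Measure – GFP/RFP fluorescence ratio · Benchmarks – DMSO wells and RFP-L50D-GFP cells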
HIV Env fusion – HIV envelope-mediated fusion inhibition. HeLa-JRFL Env/CEM21 cell fusion, luciferase. inhibition, % at 12.3 µM. hit rate 1.1% among 360,000;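 active = mean replicate inhibition score of at least 50 and every replicate individually at or above 50; inconclusive = only one of the two criteria met; inactive = mean below 50 and not all replicates reaching 50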;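 note: 0% = plate neutral controls and 100% = maraviroc near 300 nM; one replicate is shown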
eIF4H inh – inhibitors of RNA binding by human eIF4H; Q15056; eIF4H fluorescence polarization binding assay; inhibition, % at 35 µM; hit rate 0.94% among 290,000;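 active = 50% or more with normal probe brightness, or confirmed in later tests; inconclusive = above 50% with abnormal brightness, or retests that disagree; inactive = below 50% or failed in later tests; about a fifth of its hits are not listed in these tables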;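 note: calls also rest on retests at 20 µM and on dose response follow-up; 0% = protein and probe with vehicle and 100% = probe without protein; strong numbers were not always called active; many hits fall short of the cut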
Rce1 inhib – inhibitors of yeast Ras-converting enzyme. Q03530. yeast membranes, quenched prenylated peptide cleavage fluorescence. calls only. hit rate 0.27% among 290,000. AID 2563;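 active = fall in fluorescence gain of 50% or more versus controls, with final raw signal at or below 3038400; inconclusive = same 50% fall but final raw signal above 3038400; inactive = fall in fluorescence gain under 50%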;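 note: plate controls were neutral control wells for no effect and wells lacking membranes for full effect; tested at 10 µM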
Target sequence (Q03530 whole entry, looked up): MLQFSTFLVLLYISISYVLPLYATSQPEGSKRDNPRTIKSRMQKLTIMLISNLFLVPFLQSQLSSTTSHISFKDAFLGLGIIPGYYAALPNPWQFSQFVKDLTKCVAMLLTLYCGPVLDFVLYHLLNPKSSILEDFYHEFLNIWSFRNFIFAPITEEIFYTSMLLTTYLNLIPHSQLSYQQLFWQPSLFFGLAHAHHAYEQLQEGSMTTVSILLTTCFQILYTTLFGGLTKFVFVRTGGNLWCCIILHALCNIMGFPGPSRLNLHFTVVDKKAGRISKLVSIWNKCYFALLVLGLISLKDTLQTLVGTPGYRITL
Yeast UUG start – yeast start codon fidelity modulation | S. cerevisiae UUG-firefly luciferase reporter, luminescence/redox ratio | activity score, % at 18.7 µM | hit rate 0.13% among 350,000 | AID 602363;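 active = replicate mean at a twofold rise or more, about +100% in these data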;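 note: firefly luciferase made from a UUG start codon reports start codon fidelity; reporter light over untreated wells divided by growth signal over untreated wells; some hits fall short of that in this replicate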
CSC inhib – blocks cancer stem cells. cancer stem cell-like cells viability, luminescence. inhibition, % at 7.5 µM. hit rate 1.1% among 300,000;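 active = mean at 75% or more and at least half the replicates too; inconclusive = mean and replicates disagree; tested in HMLE shEcad cells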;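 note: 0% = median of negative and 100% = median of positive control wells; the first replicate is given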
PABP polyA inh – blocks human PABP binding to poly(A) RNA. hit rate 1% among 290,000. fluorescence polarization. inhibition, % at 35 µM. P11940;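 active = 50% or more with normal probe brightness, or confirmed in later tests; inconclusive = above 50% with abnormal brightness, or retests that disagree; inactive = below 50% or failed in later tests; about a fifth of its hits are not listed in these tables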;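 note: calls also rest on retests at 20 µM and on dose response follow-up; controls were probe without protein and protein plus probe with vehicle; some compounds called inactive have numbers as strong as hits; many hits fall short of the cut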
MT1-MMP act inh RFP – second read-out of MT1-MMP act inh, no call of its own (marks repeat the call); RFP signal change, %; measured here: RFP expression control read;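 0 = vehicle wells; hits needed this value within 50% of zero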
* hit, by the source's call; i = inactive; ? = inconclusive; . = no result given. The list is partial, so the mix of outcomes need not match the whole.

SMILES	MT1-MMP act inh	MT1-MMP act inh RFP	HIV Env fusion	eIF4H inh	Rce1 inhib	Yeast UUG start	CSC inhib	PABP polyA inh
COC(=O)[C@H](Cc1ccccc1)NC(=O)/C=C/[C@H]1O[C@@H](n2cc(C)c(=O)[nH]c2=O)C[C@@H]1O	2.8	2.3	-39.8	.	.	-4.7	.	.
CC(C)N(C(=O)C1CC(=O)OC12CCCCC2)C(C)C (stereo not drawn)	0.4	4.7	-36.6	3.1	i	11.3	-15.0	-6.2
Oc1ccc(/C=N/Nc2cc(N3CCOCC3)nc(N3CCOCC3)n2)cc1	2.2	0.7	-38.0	.	i	18.4	20.5	.
OCCNc1ncnc2c1cnn2Cc1ccccc1	-1.4	-0.1	0.2	-0.9	i	-0.5	-6.8	-5.7
O=C(NCc1ccco1)c1cccn2c(=O)c3sccc3nc12	-6.1	-1.2	31.2	.	i	-10.4	.	.
COCc1nnc(NC(=O)CC(C)c2ccccc2)s1 (stereo not drawn)	-1.8	-1.4	-22.3	4.0	i	-20.7	-9.1	13.4
Cc1csc(NC(=O)c2cccnc2)n1	3.1	1.5	-96.7	-13.2	i	-9.5	0.6	-6.6
CC(C)(C)NC(=O)C(c1ccccn1)N(C(=O)C1CSC(=O)C1)c1ccccc1F (stereo not drawn)	-0.4	-2.7	21.7	1.3	i	-15.5	-9.9	6.1
N#Cc1ccccc1OCC(=O)Nc1cccc(S(=O)(=O)N2CCCCCC2)c1	0.9	-5.8	11.6	.	.	-14.3	-8.9	.
Cc1ccc(C(=O)N2CCCCC2)cc1S(=O)(=O)N1CCOCC1	0.6	1.7	1.8	2.5	i	-1.0	-2.6	10.7
CC(=O)OC1(C)C=Cc2ccccc2C1=NS(=O)(=O)c1ccccc1 (stereo not drawn)	-27.2	5.9	10.5	.	.	0.2	.	.
Cc1ccc(CCC(=O)Nc2ccc(Cl)cc2Cl)o1	1.9	2.8	-62.4	.	.	-3.6	.	.
C[N+](C)(C)C[C@H](O)CC(=O)O	2.0	0.9	4.4	.	i	-7.5	-6.6	.
CCC(=O)c1cc(F)ccc1OCC(=O)N1CCN(c2ccc(F)cc2)CC1	4.5	0.1	7.3	-6.0	i	.	3.5	5.4
CCOC(=O)c1c(S(=O)(=O)N2CCC(C)CC2)c(C)n(C)c1C	1.3	3.1	0.2	-6.0	i	3.1	5.5	-12.9
Cc1ccccc1CN1C[C@@H]2C[C@@H](c3cn(C)nc3-c3ccccc3)N3CCC[C@@]23C1=O	-2.7	-0.3	34.3	-0.8	i	.	2.2	-0.4
CCC(C)NC(=O)CSc1ncccc1C(=O)O (stereo not drawn)	24.2	2.9	.	-6.3	i	13.5	4.8	18.8
Cc1ccnc(NC(=O)/C=C/c2cccs2)c1	0.2	0.4	.	-2.2	i	-43.5	-4.0	1.6
COc1ccc(-c2sc3ccccc3c2-c2ccc(OCCN3CCCCC3)cc2)cc1	-4.4	-6.5	40.0	.	.	-4.7	139.2*	.
N#Cc1ccc(NC(=O)CN2C(=O)NC3(CCCC3)C2=O)cc1	-0.1	2.5	3.5	-9.4	i	-8.7	-0.1	-0.4
CCN(CC(=O)Nc1ccc(NC(C)=O)cc1)C(=O)/C=C/c1ccccc1	0.2	0.8	-1.7	.	i	0.4	-8.3	.
CS(=O)(=O)c1ccc(Nc2nc(C(N)Cc3ccc(F)cc3)cs2)cc1 (stereo not drawn)	3.8	-1.5	2.6	.	.	-5.7	.	.
CCCCn1nnnc1C(c1cccs1)N1CCN(C/C=C/c2ccccc2)CC1 (stereo not drawn)	5.1	-2.8	15.6	.	.	2.8	.	.
Cc1nc2cc3nc(C(F)(F)F)[nH]c3cc2[nH]1	1.1	2.0	-2.6	0.4	i	.	9.6	-5.1
Cn1cnc(C(F)(F)F)c1-c1ccc([N+](=O)[O-])cc1	0.5	0.7	-26.4	6.5	i	.	-8.1	-9.0
CC(C)N(Cc1nc(-c2ccccc2)no1)C(=O)CN(C)S(=O)(=O)c1ccc(Br)cc1	-5.7	-6.9	69.6*	5.7	i	-22.0	.	2.9
CS(=O)(=O)N1CCN(c2ccc(NC(=O)COc3ccccc3[N+](=O)[O-])cc2)CC1	-3.8	-1.9	-16.0	-0.1	i	-9.5	7.9	-5.9
O=C(NC1CCCCC1)c1cc(S(=O)(=O)N2CCOCC2)c(Cl)cc1Cl	0.9	-7.9	19.1	1.3	i	-3.2	2.1	-2.4
Cc1c(C(=O)N2CCCCC2)c(S(=O)(=O)N2CCN(c3ccc(Cl)cc3)CC2)c(C)n1C	0.5	0.8	-0.8	-5.0	i	7.3	-1.5	-4.7
CCN(C(=O)CSc1nc2ccc([N+](=O)[O-])cc2s1)C1CCS(=O)(=O)C1 (stereo not drawn)	-1.4	1.4	6.3	-10.0	i	2.3	-10.6	-3.2
O=C(NCc1ccccc1)C1CCC(=O)N(CCCN2CCCC2=O)C1 (stereo not drawn)	-1.2	3.7	-8.3	9.6	i	-10.6	-16.6	-6.1
CC(C)Oc1cccc(C(=O)Nc2ccc(N3CCN(C)CC3)cc2)c1	-0.8	-3.1	-12.6	-1.7	i	-6.1	25.7	20.7
Cc1ccc(CSc2nnc([C@@H]3CCCN3)o2)cc1	-2.1	8.9	-15.2	6.8	i	-20.9	-11.9	-3.9
COC(=O)c1cnn2c1C(=O)N(Cc1cccs1)CC2	-0.2	3.1	-14.7	-1.3	i	-9.9	-14.6	-6.0
Nc1nncn1C(=O)c1c(Cl)cccc1Cl	-1.6	6.5	-15.6	2.0	i	-16.1	.	0.0
COc1ccc(N2CCN(c3ccc(S(=O)(=O)N(C(C)C)C(C)C)cn3)CC2)cc1	-1.3	-21.0	2.7	-7.1	i	-1.9	48.9	9.3
Cc1ccc(S(=O)(=O)NCCC(=O)OCC(=O)Nc2cccc(S(=O)(=O)NC3=NCCCCC3)c2)cc1	0.9	4.8	2.8	-5.3	i	-7.8	5.3	-4.4
O=C1c2ccccc2NC(c2ccc(Cl)cc2Cl)N1Cc1ccccc1 (stereo not drawn)	-17.3	-7.0	.	-4.3	i	-15.4	-2.1	-10.2
CCOC(=O)C1C(c2ccc([N+](=O)[O-])cc2)C2C(=O)NN=C2CC1(C)O (stereo not drawn)	-2.0	4.4	3.6	1.8	i	-23.3	1.8	-6.6
O=C(OCC(=O)c1ccccc1Cl)C1=NN(c2ccccc2)C(=O)CC1	3.8	2.0	-13.3	.	.	-7.9	-14.8	.
COC(=O)c1c(N)n(CCCN2CCOCC2)c2nc3ccccc3nc12	4.7	4.8	-52.1	-2.3	i	-9.6	-3.1	-0.6
N#Cc1ccc(C(c2nnnn2Cc2ccccc2)N2CCCC2)cc1 (stereo not drawn)	-1.9	-1.3	-18.5	-0.5	i	.	-6.4	39.5
Cc1ccc(-c2nnc(NC(=O)c3ccco3)o2)c(C)c1	3.0	4.6	.	.	i	-13.6	15.3	.
COc1ccc(CC(=O)NNC(=O)Cc2ccc(OC)cc2)cc1	.	.	.	1.7	i	.	-14.7	5.5
C=C(C)CN(CC)C(=O)c1ccc(OC2CCN(S(=O)(=O)N(C)C)CC2)cc1	-1.0	-7.7	-51.0	-3.3	i	.	-6.5	-1.1
CCOc1cc2[nH]c(=S)n(CCCN3CCN(C)CC3)c(=O)c2cc1OCC	-0.7	2.1	2.1	.	.	-20.4	.	.
CCCOc1ccc(-c2nnn(CC(=O)c3ccc4c(c3)OCCO4)n2)cc1	-3.7	-3.8	.	-1.8	i	-17.1	10.5	3.8
C=C(C)C(=O)N1CC2(CC(c3cccc(NC(=O)CCCCC)c3)=NO2)C[C@H]1C(N)=O (stereo partly drawn)	-1.4	6.6	-20.8	1.0	i	-9.7	.	3.7
CCC1=[N+](CC(=O)c2ccc(Br)cc2)CCn2c(C)ccc21	-4.2	0.9	49.2	2.0	i	2.3	?	-5.7
O=C(Cc1ccc([N+](=O)[O-])cc1)N/N=C/c1cccnc1	-1.2	0.0	-53.3	.	i	.	-2.2	.
Cc1ccc(CNC(=O)C2CCCN(c3nc(C)cc(C)n3)C2)cc1 (stereo not drawn)	-4.6	1.8	2.4	-7.6	i	.	0.9	3.4
COc1cccc(C(=O)Nc2ccc(NC(C)=O)cn2)c1	4.0	3.0	-27.7	6.5	i	-19.4	.	-5.9
O=C(c1ccco1)N1CCN(c2ccc(Cl)c(Cl)c2)CC1	-6.0	-6.7	-99.3	.	i	-4.6	0.6	.
O=C1NCCN1CCNS(=O)(=O)c1ccc(F)c(Cl)c1	1.0	2.0	-4.5	0.6	i	-10.5	-4.7	5.0
COc1ccccc1CNC(=O)COC(=O)COc1ccccc1F	5.9	1.6	.	.	.	3.3	11.2	.
Cc1cnn(C(=O)c2cc(-c3ccccc3)nc3ccccc23)c1	3.4	4.5	-30.5	-3.0	i	-6.7	.	-7.0
O=C(Nc1cccn(Cc2ccccc2)c1=O)NC1CCCCC1	-3.5	-10.1	-17.4	-7.3	i	-2.1	-7.2	1.1
CCNC(=S)Nc1ccc2c(c1)oc1ccccc12	4.1	2.0	-19.1	.	.	-30.0	6.2	.
O=c1cc(-c2ccccc2)[nH]c2cc(F)ccc12	11.6	-2.4	-68.8	-7.6	i	-8.7	65.1	-4.3
COc1ccc(OC)c(-n2c(-c3cc(-c4ccccc4)n[nH]3)n[nH]c2=S)c1	0.2	2.4	-1.7	-9.8	i	.	-14.3	11.6

New compounds follow
SMILES	MT1-MMP act inh	MT1-MMP act inh RFP	HIV Env fusion	eIF4H inh	Rce1 inhib	Yeast UUG start	CSC inhib	PABP polyA inh
COc1ccc(NC(=O)CN2CCN(C(C)=O)CC2)cc1S(=O)(=O)N1CCOCC1	-1.4	3.6	-10.0	.	.	18.4	5.0	.
Cc1ccc(C(=O)NCCc2ccccc2)cc1N1CCCC1=O	0.8	5.4	.	-10.8	i	32.6	-13.0	-2.0
CCCCC(c1nnnn1CCOC)N1CCN(CC)CC1 (stereo not drawn)	-1.6	0.7	7.5	-2.8	.	-8.2	30.4	8.9
CCOc1ccc(-c2[nH]ncc2-c2ccc(Cl)cc2)c(O)c1	7.2	2.9	18.4	-5.6	i	-12.4	38.0	2.7

Nothing new here: entries from further up.
SMILES	MT1-MMP act inh	MT1-MMP act inh RFP	HIV Env fusion	eIF4H inh	Rce1 inhib	Yeast UUG start	CSC inhib	PABP polyA inh
CCNC(=S)Nc1ccc2c(c1)oc1ccccc12	4.1	2.0	-19.1	.	.	-30.0	6.2	.
O=c1cc(-c2ccccc2)[nH]c2cc(F)ccc12	11.6	-2.4	-68.8	-7.6	i	-8.7	65.1	-4.3
COc1ccc(OC)c(-n2c(-c3cc(-c4ccccc4)n[nH]3)n[nH]c2=S)c1	0.2	2.4	-1.7	-9.8	i	.	-14.3	11.6
COc1ccc(NC(=O)CN2CCN(C(C)=O)CC2)cc1S(=O)(=O)N1CCOCC1	-1.4	3.6	-10.0	.	.	18.4	5.0	.
Cc1ccc(C(=O)NCCc2ccccc2)cc1N1CCCC1=O	0.8	5.4	.	-10.8	i	32.6	-13.0	-2.0

Source: PubChem
